MT1-MMP act inh: blockers of MT1-MMP proenzyme processing, primary screen, HT1080 RFP-PRO-GFP cells, GFP/RFP fluorescence | GFP/RFP ratio change, % at 20 µM | Matrix metalloproteinase-14 (Homo sapiens), P50281 | GFP/RFP ratio fluorescence, overnight; percent of plate control window, DMSO zero | actives 0.061% (n = 360,000);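 active = GFP/RFP ratio change of at least 30% with cell ATP level not reduced by more than half and red fluorescence within 50% of control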; also: strong numbers were not always called active
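Material – HT1080 RFP-PRO-GFP cells · Control set – DMSO wells and RFP-L50D-GFP cells · Incubation – overnight cell settling, then overnight compound exposure, 37 °C, 5% CO2 · Compound dosing – single-point 20 µM compound, 1% DMSO · Read-out – GFP/RFP fluorescence ratio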
HIV Env fusion: inhibitors of HIV-1 Env-driven cell-cell fusion, primary screen, HeLa-JRFL effector, CEM21 target cells, luciferase; inhibition, % at 12.3 µM; actives 1.1% (n = 360,000); AID 651610, 2012;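 active = mean replicate inhibition score of at least 50 and every replicate individually at or above 50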;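 also: 0% = plate neutral controls and 100% = maraviroc near 300 nM; one replicate is shown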
eIF4H FP inh: human eIF4H binding inhibitors, primary screen, translation initiation inhibitor project, biochemical, uHTS, fluorescence polarization. Eukaryotic translation initiation factor 4H (Homo sapiens), Q15056. eIF4H fluorescence polarization binding assay. inhibition, % at 35 µM. actives 0.94% (n = 290,000);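 active = 50% or more with normal probe brightness, or confirmed in later tests; about a fifth of its hits are not listed in these tables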;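 also: calls also rest on retests at 20 µM and on dose response follow-up; 0% = protein and probe with vehicle and 100% = probe without protein; strong numbers were not always called active; many hits fall short of the cut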
UUG fidelity: modulators of yeast start codon fidelity, primary screen, whole organism, S. cerevisiae, single point, plate reader. actives 0.13% (n = 350,000). S. cerevisiae UUG-firefly luciferase reporter, luminescence/redox ratio. activity score, % at 18.7 µM;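 active = replicate mean at a twofold rise or more, about +100% in these data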;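 also: firefly luciferase made from a UUG start codon reports start codon fidelity; reporter light over untreated wells divided by growth signal over untreated wells; some hits fall short of that in this replicate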
PABP polyA inh: PABP poly(A) RNA binding inhibitors, primary screen, biochemical, fluorescence polarization, uHTS; Polyadenylate-binding protein 1 (Homo sapiens), P11940; inhibition, % at 35 µM; actives 1% (n = 290,000);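 active = 50% or more with normal probe brightness, or confirmed in later tests; about a fifth of its hits are not listed in these tables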;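 also: calls also rest on retests at 20 µM and on dose response follow-up; controls were probe without protein and protein plus probe with vehicle; some compounds called inactive have numbers as strong as hits; many hits fall short of the cut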
Target sequence (P11940 whole entry, looked up): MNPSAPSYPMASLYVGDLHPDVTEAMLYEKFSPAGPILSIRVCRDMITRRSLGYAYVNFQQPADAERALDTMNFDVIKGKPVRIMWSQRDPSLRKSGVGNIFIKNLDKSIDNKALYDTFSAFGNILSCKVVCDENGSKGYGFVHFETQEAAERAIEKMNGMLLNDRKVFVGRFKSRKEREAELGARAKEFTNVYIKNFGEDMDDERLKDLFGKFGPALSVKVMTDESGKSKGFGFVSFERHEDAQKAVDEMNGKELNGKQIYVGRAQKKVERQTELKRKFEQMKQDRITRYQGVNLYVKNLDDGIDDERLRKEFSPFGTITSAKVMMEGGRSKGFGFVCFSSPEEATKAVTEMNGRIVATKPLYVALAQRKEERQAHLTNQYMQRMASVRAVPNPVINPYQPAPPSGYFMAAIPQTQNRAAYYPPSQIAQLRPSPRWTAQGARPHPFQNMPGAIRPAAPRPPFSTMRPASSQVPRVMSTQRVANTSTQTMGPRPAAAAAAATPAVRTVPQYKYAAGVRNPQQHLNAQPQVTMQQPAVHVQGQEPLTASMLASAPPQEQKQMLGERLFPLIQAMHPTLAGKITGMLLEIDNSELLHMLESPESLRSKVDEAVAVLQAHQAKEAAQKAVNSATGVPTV
Rce1 inh: yeast Rce1p protease inhibitors, primary screen, biochemical, fluorescence, cell-free homogeneous | AID 2563, 2010 | yeast membranes, quenched prenylated peptide cleavage fluorescence | calls only | actives 0.27% (n = 290,000);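 active = fall in fluorescence gain of 50% or more versus controls, with final raw signal at or below 3038400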;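 also: plate controls were neutral control wells for no effect and wells lacking membranes for full effect; tested at 10 µM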
Target sequence (Q03530 whole entry, looked up): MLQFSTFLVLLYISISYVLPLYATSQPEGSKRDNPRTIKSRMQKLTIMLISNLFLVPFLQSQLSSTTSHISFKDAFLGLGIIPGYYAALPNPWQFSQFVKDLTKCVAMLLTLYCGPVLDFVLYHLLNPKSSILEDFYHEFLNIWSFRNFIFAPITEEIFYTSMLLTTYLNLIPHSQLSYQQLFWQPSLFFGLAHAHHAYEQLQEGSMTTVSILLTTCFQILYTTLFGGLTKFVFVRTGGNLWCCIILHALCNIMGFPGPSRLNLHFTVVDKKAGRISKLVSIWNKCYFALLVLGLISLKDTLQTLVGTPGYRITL
CSC inhib: cancer stem cell viability inhibitors, primary screen, luminescence. cancer stem cell-like cells viability. inhibition, % at 7.5 µM. actives 1.1% (n = 300,000). AID 2717, 2010;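 active = mean at 75% or more and at least half the replicates too; tested in HMLE shEcad cells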;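 also: 0% = median of negative and 100% = median of positive control wells; the first replicate is given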
eIF4H FP inh retest: further read-out of eIF4H FP inh, marked with its call; inhibition, %; compound at 20 µM; confirmation average;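 mean of two retest wells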
PABP polyA inh retest: further read-out of PABP polyA inh, marked with its call; inhibition, %; compound at 20 µM; confirmation repeats;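 mean of two retest wells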
MT1-MMP act inh RFP: further read-out of MT1-MMP act inh, marked with its call; RFP signal change, %; measured here: RFP expression control read;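 0 = vehicle wells; hits needed this value within 50% of zero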
An asterisk follows results filed as active.

COc1ccc(CNC(=O)c2cc(=O)c3cc(C)cc(C)c3o2)cc1 was read as MT1-MMP act inh -4, HIV Env fusion -21, eIF4H FP inh -6, UUG fidelity -10, PABP polyA inh 9, Rce1 inh inactive, CSC inhib -13 and MT1-MMP act inh RFP 2.
`OCC[C@H]1C[C@@H](O)[C@H](O)[C@]2(Cc3ccccc3CO2)O1` gave MT1-MMP act inh 2, HIV Env fusion 20, UUG fidelity -14, CSC inhib -2 and MT1-MMP act inh RFP 3.
CC(C)[C@H](Nc1ccc(S(=O)(=O)N2CCOCC2)cc1[N+](=O)[O-])C(=O)OCC(N)=O was read as MT1-MMP act inh 12, HIV Env fusion 2, eIF4H FP inh 5, UUG fidelity -10, PABP polyA inh -4, Rce1 inh inactive, CSC inhib -4 and MT1-MMP act inh RFP 2.
COc1ccsc1C(=O)NCCN1CCOCC1 was read as MT1-MMP act inh 0, HIV Env fusion 3, eIF4H FP inh 3, UUG fidelity 1, PABP polyA inh -6, Rce1 inh inactive, CSC inhib -8 and MT1-MMP act inh RFP 8.
CCCCN(CC)S(=O)(=O)c1ccc2c(c1)CCCN2C(C)=O was read as MT1-MMP act inh -1, HIV Env fusion -17, eIF4H FP inh 5, UUG fidelity 10, PABP polyA inh -13, Rce1 inh inactive, CSC inhib 12 and MT1-MMP act inh RFP -3.
For C#CCOCCOCCOCCNc1nc(N2CCOCC2)nc(N2CCN(C(=O)CCCCCCCCCCNC(=O)[C@H](CO)n3cc(CCCCCN)nn3)CC2)n1 the results were MT1-MMP act inh 5, HIV Env fusion 4, UUG fidelity -5, CSC inhib 18 and MT1-MMP act inh RFP 2.
For COc1ccc(/C=C/c2ccccc2)cc1[C@H]1[C@@H]2C=CCC[C@@]2(C)C(=O)N1Cc1ccccc1 the results were MT1-MMP act inh 0, HIV Env fusion 31, eIF4H FP inh -12, UUG fidelity -14, PABP polyA inh -7, Rce1 inh inactive, CSC inhib 36 and MT1-MMP act inh RFP -6.
Screening O=C(COc1ccc(S(=O)(=O)NC2CCCCC2)cc1Cl)N1CCN(c2ccccc2)CC1 returned MT1-MMP act inh -5, eIF4H FP inh -7, UUG fidelity 7, PABP polyA inh 3, Rce1 inh inactive and MT1-MMP act inh RFP -16.
`CC(C)CNC(=O)C1(C)CCCN1C(=O)c1ccc2c(c1)CCO2` (centres undefined) gave MT1-MMP act inh 0, HIV Env fusion -3, UUG fidelity -4 and MT1-MMP act inh RFP 4.
`Cc1ccc(/C(N)=N/OC(=O)Cc2cccs2)cc1` gave MT1-MMP act inh -3, HIV Env fusion -139, eIF4H FP inh -18, UUG fidelity 2, PABP polyA inh -6, Rce1 inh inactive, CSC inhib -4 and MT1-MMP act inh RFP 2.

Retrieved by compound from above, five records:
`OCC[C@H]1C[C@@H](O)[C@H](O)[C@]2(Cc3ccccc3CO2)O1` gave MT1-MMP act inh 2, HIV Env fusion 20, UUG fidelity -14, CSC inhib -2 and MT1-MMP act inh RFP 3.
`Cc1ccc(/C(N)=N/OC(=O)Cc2cccs2)cc1` gave MT1-MMP act inh -3, HIV Env fusion -139, eIF4H FP inh -18, UUG fidelity 2, PABP polyA inh -6, Rce1 inh inactive, CSC inhib -4 and MT1-MMP act inh RFP 2.
COc1ccsc1C(=O)NCCN1CCOCC1 was read as MT1-MMP act inh 0, HIV Env fusion 3, eIF4H FP inh 3, UUG fidelity 1, PABP polyA inh -6, Rce1 inh inactive, CSC inhib -8 and MT1-MMP act inh RFP 8.
COc1ccc(CNC(=O)c2cc(=O)c3cc(C)cc(C)c3o2)cc1 was read as MT1-MMP act inh -4, HIV Env fusion -21, eIF4H FP inh -6, UUG fidelity -10, PABP polyA inh 9, Rce1 inh inactive, CSC inhib -13 and MT1-MMP act inh RFP 2.
For COc1ccc(/C=C/c2ccccc2)cc1[C@H]1[C@@H]2C=CCC[C@@]2(C)C(=O)N1Cc1ccccc1 the results were MT1-MMP act inh 0, HIV Env fusion 31, eIF4H FP inh -12, UUG fidelity -14, PABP polyA inh -7, Rce1 inh inactive, CSC inhib 36 and MT1-MMP act inh RFP -6.

Later entries.
CCCC(O)(c1ccc(OC)cc1)C(CN1CCOCC1)c1ccc(Cl)cc1 (centres undefined) was read as MT1-MMP act inh -4, HIV Env fusion 11, eIF4H FP inh -1, UUG fidelity -4, PABP polyA inh 8, Rce1 inh inactive, CSC inhib 14 and MT1-MMP act inh RFP -1.
`CCOc1ccccc1N1CCN(C(=O)NC2CCCCC2)CC1` gave MT1-MMP act inh 1, HIV Env fusion -6, eIF4H FP inh -1, UUG fidelity -8, PABP polyA inh -15, Rce1 inh inactive, CSC inhib -2 and MT1-MMP act inh RFP 3.
Screening O=C(CCCC1=NS(=O)(=O)c2ccccc2N1)N1CCN(c2ccccc2)CC1 returned MT1-MMP act inh 4, HIV Env fusion -30, eIF4H FP inh -5, UUG fidelity -9, PABP polyA inh -3, Rce1 inh inactive, CSC inhib -10 and MT1-MMP act inh RFP -2.
For CC1CCC2(CC1)NC(=O)N(CC(=O)Nc1ccc(N3CCCCC3)cc1)C2=O (centres undefined) the results were MT1-MMP act inh 3, HIV Env fusion -52, UUG fidelity -2 and MT1-MMP act inh RFP 3.
COCCCn1c(=O)c2sccc2n2c(CCCC(=O)NCc3ccccc3OC)nnc12 was read as MT1-MMP act inh 3, HIV Env fusion 0, eIF4H FP inh 6, UUG fidelity -29, PABP polyA inh 5, Rce1 inh inactive, CSC inhib -16 and MT1-MMP act inh RFP 6.
For CC(C)C[C@@H]1NC(=O)[C@H](CO)NC(=O)c2cc([N+](=O)[O-])cc(I)c2OCC[C@@H](C(N)=O)NC1=O the results were MT1-MMP act inh 4, eIF4H FP inh -7, UUG fidelity 29, PABP polyA inh -4, CSC inhib 4 and MT1-MMP act inh RFP 0.
For O=c1oc2ccccc2c2oc3cc(O)c(O)cc3c12 the results were MT1-MMP act inh -1, HIV Env fusion -92, eIF4H FP inh 101*, PABP polyA inh 80*, Rce1 inh inactive, CSC inhib 13 and MT1-MMP act inh RFP -3.
Screening Cc1ccc(S(=O)(=O)Nc2ccc3ccccc3c2[N+](=O)[O-])cc1 returned MT1-MMP act inh -3, HIV Env fusion -1, UUG fidelity -6 and MT1-MMP act inh RFP 1.
`CCS(=O)(=O)NCCc1cc2cc(C)c(C)cc2[nH]c1=O` gave eIF4H FP inh -10, UUG fidelity -17 and PABP polyA inh -3.
`C/C(=N\NC(=O)c1c(Cl)c(C)nn1C)c1cccc(NC(=O)c2cccc(F)c2)c1` gave MT1-MMP act inh 2, HIV Env fusion -10, eIF4H FP inh -8, UUG fidelity -5, PABP polyA inh -2, Rce1 inh inactive, CSC inhib 3 and MT1-MMP act inh RFP -3.
`CC1=C([N+](=O)[O-])C(c2ccccc2Cl)NC(=O)N1C` (centres undefined) gave MT1-MMP act inh -2, HIV Env fusion -11, eIF4H FP inh 2, UUG fidelity -10, PABP polyA inh -4, Rce1 inh inactive, CSC inhib -16 and MT1-MMP act inh RFP 1.
Screening O=c1[nH]c(C2CCN(S(=O)(=O)c3ccc(C(F)(F)F)cc3)CC2)nc2c1nnn2Cc1cccc(F)c1 returned HIV Env fusion 31, eIF4H FP inh -12, UUG fidelity -7, PABP polyA inh 4, Rce1 inh inactive and CSC inhib 20.
COc1ccc(-c2csc(NC(=S)NC(=O)/C=C/c3ccco3)n2)cc1OC was read as MT1-MMP act inh -6, eIF4H FP inh 89*, PABP polyA inh 10*, Rce1 inh inactive, CSC inhib 79*, eIF4H FP inh retest 60*, PABP polyA inh retest 51* and MT1-MMP act inh RFP -11.
Cc1cc2cc(CN(Cc3ccco3)C(=O)NCc3ccccc3)c(=O)[nH]c2cc1C was read as MT1-MMP act inh -1, eIF4H FP inh 12, UUG fidelity -5, PABP polyA inh 8, Rce1 inh inactive, CSC inhib -9 and MT1-MMP act inh RFP -3.
For COCCNC(=O)Nc1ccc2nc(-c3cccs3)c(-c3cccs3)nc2c1 the results were MT1-MMP act inh -10, HIV Env fusion -19, eIF4H FP inh 13, UUG fidelity -14, PABP polyA inh 2, Rce1 inh inactive, CSC inhib 19 and MT1-MMP act inh RFP -5.
`Cc1ccc(-c2nn3c(C)nnc3c3ccccc23)cc1S(=O)(=O)NCCO` gave MT1-MMP act inh 9, HIV Env fusion -20, eIF4H FP inh -6, PABP polyA inh 5, CSC inhib 4 and MT1-MMP act inh RFP 10.
Screening CCc1n[nH]c(=S)n1/N=C/c1cc(Br)c(O)c(OC)c1 returned MT1-MMP act inh -1, HIV Env fusion -13, eIF4H FP inh -4, PABP polyA inh 22, Rce1 inh inactive, CSC inhib -8 and MT1-MMP act inh RFP 2.
Screening O=C(NC1=NCCCCC1)c1cccc2ccccc12 returned MT1-MMP act inh 1, HIV Env fusion 1, eIF4H FP inh -10, UUG fidelity -11, PABP polyA inh 39, Rce1 inh inactive, CSC inhib 8 and MT1-MMP act inh RFP 5.
Screening COc1ccccc1CCC(=O)OCC(=O)NC1CCCC1 returned MT1-MMP act inh 0, HIV Env fusion -17, UUG fidelity -3, Rce1 inh inactive, CSC inhib -8 and MT1-MMP act inh RFP 0.
For Cc1nn(C)c(C)c1CCC(=O)O the results were MT1-MMP act inh 0, HIV Env fusion 2, eIF4H FP inh -7, UUG fidelity -8, PABP polyA inh -2, Rce1 inh inactive, CSC inhib -4 and MT1-MMP act inh RFP 0.
For COc1ccccc1C(=O)NC(=O)COC(=O)CCOc1cc(C)ccc1C the results were MT1-MMP act inh 0, HIV Env fusion 9, eIF4H FP inh -20, UUG fidelity -10, PABP polyA inh -9, Rce1 inh inactive, CSC inhib -1 and MT1-MMP act inh RFP 3.
`Cc1onc(-c2ccccc2)c1C(O)c1ccc(F)cc1` (centres undefined) gave MT1-MMP act inh 0, HIV Env fusion -8, eIF4H FP inh -13, UUG fidelity -11, PABP polyA inh 10, Rce1 inh inactive, CSC inhib -3 and MT1-MMP act inh RFP 3.
`CN(C)c1ccc(S(=O)(=O)N2CCCCC2)cc1NC(=O)CCNC(=O)c1ccccc1Cl` gave MT1-MMP act inh 0, HIV Env fusion 11, UUG fidelity -12 and MT1-MMP act inh RFP 1.
For COc1ccc(-c2cc(C(=O)Nc3cc(C)on3)no2)cc1OC the results were MT1-MMP act inh 2, HIV Env fusion 6, eIF4H FP inh 2, PABP polyA inh -3, Rce1 inh inactive, CSC inhib -7 and MT1-MMP act inh RFP 3.
C/C(Cn1nnc([N+](=O)[O-])n1)=N\NC(=O)c1ccc(O)cc1 was read as MT1-MMP act inh -1, HIV Env fusion -2, eIF4H FP inh -2, UUG fidelity -8, PABP polyA inh 1, Rce1 inh inactive, CSC inhib 0 and MT1-MMP act inh RFP -15.
`CC1CCC2(CC1)NC(=O)N(CC(=O)N1CCN(C(=O)c3ccco3)CC1)C2=O` (centres undefined) gave MT1-MMP act inh 1, HIV Env fusion -16, UUG fidelity -5, CSC inhib 9 and MT1-MMP act inh RFP 4.
Screening O=C(NCCc1cnc[nH]1)c1cccs1 returned MT1-MMP act inh 6, HIV Env fusion -23, eIF4H FP inh -1, UUG fidelity -7, PABP polyA inh -2, Rce1 inh inactive, CSC inhib -16 and MT1-MMP act inh RFP 10.
For Cc1cc2c(NC(=O)CC(C)(C)CC(=O)O)cccc2nn1 the results were MT1-MMP act inh 4, HIV Env fusion -9, eIF4H FP inh 13, UUG fidelity -20, PABP polyA inh 1, Rce1 inh inactive, CSC inhib 2 and MT1-MMP act inh RFP 1.
